High-throughput results (PubChem)
NPYLR7 ag – mosquito NPYLR7 agonism; HEK293T NPYLR7/Galpha15, GCaMP6s calcium fluorescence; activation, % at 10 µM; hit rate 0.15% among 270,000; in the data active = activation above about 40%;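 also: 0% = vehicle and 100% = reference agonist at the receptor; some compounds past the cut are filed as inactive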
NPYLR7 ag max-min – second read-out of NPYLR7 ag, no call of its own (marks repeat the call); activation, %; measured here: Max-Min RFU normalised activation; some inactives read as strong as hits;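 span of the calcium signal over five minutes; 0% = vehicle and 100% = native peptide agonist; compound fluorescence can raise it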
An asterisk follows results filed as active. These rows are one share of the data; rates above refer to the full screens.

SMILES | NPYLR7 ag | NPYLR7 ag max-min
CCOC(=O)C(=O)N1CCc2c([nH]c3ccc(OC)cc23)C1COCc1ccccc1 (configuration not stated) | 5.0 | -5.0
CCCCCCOc1ccccc1-c1nc2ccccc2c(=O)n1C1CCN(C(=O)OCC)CC1 | 3.8 | -3.7
O=S(=O)(c1cc(C(F)(F)F)ccc1Cl)N1CCC(c2c[nH]c3ccc(F)cc23)CC1 | 30.7 | 16.7
CSc1ccc(Cl)cc1NC(=O)NC1CCCC1O (configuration not stated) | 2.8 | 1.9
COCCNC(=O)C1(C)CCCN(Cc2ccc(-n3ccnc3)cc2)C1 (configuration not stated) | -0.8 | -2.6
COCc1noc(CNCC(=O)Nc2cc(C)ccc2F)n1 | -3.6 | -6.1
O=c1ccnc(SCc2cn3cc(Cl)ccc3n2)[nH]1 | 3.5 | 0.6
CCOC(=O)[C@@H]1CCCC[C@@H]1NC(=O)c1ccc(-n2nc(-c3cccc(C(F)(F)F)c3)cc2N)cc1 | -2.3 | -13.5
C=CCn1c(CNC(=O)c2ccco2)n[nH]c1=S | 1.8 | 8.2
OCCOc1ccccc1-c1nccn1-c1ccc2c(c1)OCO2 | 1.8 | 0.6
O=C(OC(C(=O)NC1CC1)c1ccccc1)c1cc(-c2ccco2)nc2ccccc12 (configuration not stated) | 0.1 | 2.2
Cc1cc(NCCC(C)C)n2nc(C)c(-c3ccccc3)c2n1 | -1.0 | -4.1
CN(Cc1cc2n(n1)CCCNC2)Cc1nccn1Cc1ccccc1 | 3.8 | 3.6
O=C(CC(c1ccccc1Cl)c1c[nH]c2ccccc12)NCCc1ccccc1 (configuration not stated) | 3.6 | 12.7
O=C1Nc2ccc3cn[nH]c3c2C1=O | -2.9 | -3.5
Cc1ccccc1N1CCN(C(=O)CSc2nc(Cl)cc(N3CCN(C(=O)CC(C)(C)C)C(C)C3)n2)CC1 (configuration not stated) | 9.6 | 11.4
O=S(=O)(Nc1cc(F)ccc1F)c1cccc(Br)c1 | 4.1 | 1.3
Cc1cc2c(cc1Br)N(C(=O)c1cnc3[nH]c(=O)[nH]c(=O)c3c1)CC(C)O2 (configuration not stated) | -0.7 | 6.4
C1=CC[C@H]2CN(c3nncs3)C[C@H]2C1 | -0.8 | 13.8
Cc1cc(C)n(CCCC(=O)N2CC[C@@H](c3ccc4c(c3)OCO4)[C@H](O)C2)n1 | -1.2 | -2.2
CCOC(=O)c1nn(-c2ccccc2)c2nc(Nc3ccccc3)cc(=O)n12 | -6.7 | -8.3
COc1ccccc1NC(=O)Nc1ccc(N2CCN(c3ccccc3OC)CC2)c(C(=O)NC(C)C)c1 | 1.4 | -10.3
COCCC1NC(=O)c2cnc(SCc3ccccn3)nc21 (configuration not stated) | 23.9 | 11.7
COc1ccc2nc(CCn3c(=O)oc4ccccc43)[nH]c(=O)c2c1 | 0.1 | 0.5
CCOC(=O)C1CCCN(C(=O)c2nn(-c3ccc(Cl)cc3)c(=O)n(Cc3cccc(OC)c3)c2=O)C1 (configuration not stated) | 10.2 | 6.0
COCC(C)NC(=O)c1cc2ccccc2cc1OC (configuration not stated) | 4.3 | 4.9
CCCOc1cccc(NC(=O)OC2CCN(C)CC2)c1 | 3.1 | 2.2
CCc1cc(CN(C)CC(=O)NC(C)c2ccc(C)cc2)on1 (configuration not stated) | 26.5 | 20.4
Cc1oc(-c2ccccc2)nc1CC(=O)N1CC2(CCNCC2)CC1C(=O)O (configuration not stated) | -0.2 | 8.4
Cc1ccc(C)c(S(=O)(=O)c2cnc(SCC(=O)Nc3cc(F)ccc3F)[nH]c2=O)c1 | 4.1 | 2.5
COc1ccccc1-c1ccc(C(=O)NCC2(O)CCCNCC2)cc1 (configuration not stated) | 6.1 | 6.7
CC(C)Cc1noc(C2CCCN(C(=O)c3cc(C4CC4)[nH]n3)C2)n1 (configuration not stated) | -6.0 | -9.6
O=S(=O)(c1ccc(Cl)cc1)N1CCN(c2nccc(-c3cccc(C(F)(F)F)c3)n2)CC1 | 4.1 | 0.9
NC(=O)NN=Cc1ccc(C2C=CCC2)s1 (configuration not stated) | -3.3 | -3.5
CC1(C(=O)NS(=O)(=O)c2ccc(Cl)cc2)CCN1C(=O)Cc1ccc(Cl)cc1Cl (configuration not stated) | -2.7 | -5.6
Cc1cccn2c(CN3CCCOCC3)c(C(=O)N3CCOCC3)nc12 | 21.4 | 15.3
O=C(c1ccc(COc2ccccc2Cl)o1)N1CCOCC1 | 2.4 | 8.6
Cn1cc(C(=O)N2CCC(O)(c3ccc(Cl)cc3)CC2)ccc1=O | 0.6 | 12.5
CCOC(=O)CC1(NC(=O)C2CCC(=O)N(CCc3ccccc3)C2)CCCCC1 (configuration not stated) | 13.7 | 11.5
O=[N+]([O-])c1c(Sc2nnnn2-c2ccccc2)nc2sccn12 | 6.3 | 8.5

Already shown: an excerpt of the list.
SMILES | NPYLR7 ag | NPYLR7 ag max-min
CCOC(=O)c1nn(-c2ccccc2)c2nc(Nc3ccccc3)cc(=O)n12 | -6.7 | -8.3
COc1ccccc1NC(=O)Nc1ccc(N2CCN(c3ccccc3OC)CC2)c(C(=O)NC(C)C)c1 | 1.4 | -10.3

Next part:
SMILES | NPYLR7 ag | NPYLR7 ag max-min
c1ccc2c(c1)nc(N1CCCC1)c1nnnn12 | -2.5 | -1.9
COc1cccc(C(=O)N/N=c2\oc3ccc(OC)cc3cc2-c2nc3ccccc3[nH]2)c1 | -4.3 | -13.3
Cc1cccc(N2CCN(S(=O)(=O)c3ccc4c(c3)OCCO4)CC2)c1 | -5.5 | -9.6
COc1cccc(CCNC(=O)c2cc(N3CCOCC3)nc3ccccc23)c1 | -19.7 | -13.8
CSc1cccc(NC(=O)c2ccc(Cl)s2)c1 | -5.2 | -9.6
O=C(c1cc(Br)ccc1F)N1CCCC1c1ccc[nH]1 (configuration not stated) | 3.8 | 1.0
Cc1cc(C)n(C(C)C(=O)N2Cc3cnc(-c4ccccc4)nc3C2)n1 (configuration not stated) | 5.6 | 3.4
NS(=O)(=O)c1ccc(CNC(=O)c2cc(C3CC3)n(C3CCS(=O)(=O)C3)n2)cc1 (configuration not stated) | -1.4 | -3.8
COc1ccc(NC(=O)CN(C)C(=O)C(NC(=O)c2ccco2)C(C)C)cc1 (configuration not stated) | 5.3 | 4.9
COC(=O)NC1CCN(c2ccccc2C(=O)N2CCc3ccccc3C2)CC1 | 20.2 | 18.0
CCC(NC)c1cccc(S(=O)(=O)Nc2cnn(C)c2)c1 (configuration not stated) | 2.2 | -0.1
O=C(NCCc1ccccn1)c1cccc(CSc2nc(Cl)cc(N3CCN(c4ccccc4Cl)CC3)n2)c1 | 38.2 | 32.8
Fc1ccccc1-c1nnc2ccc(N3CCCCC3)nn12 | 2.8 | 0.0
Cc1ccc(-n2c(=O)[nH]c3c(C(=O)Nc4cccc5ccccc45)cn(C)c3c2=O)cc1 | 10.5 | 9.9
O=C(N[C@@H]1CCCCC1NC(=O)C1CCN(C(=O)c2ccccc2Cl)CC1)c1ccc(F)cc1 (some centres not stated) | -0.6 | 6.8
COc1ccc(CC2CCN(C(=O)Cc3ccccc3)CC2)cc1 | 2.0 | 4.9
COc1cccc(C(=O)NC(C)c2nc3cc(Cl)ccc3c(=O)n2C)c1 (configuration not stated) | -3.7 | -1.0
CC(C)COc1nc(-c2cccc(C(F)(F)F)c2)n(-c2cccc(NC(=O)C(C)C)c2)n1 | -2.4 | -0.8
COc1ccc(NC(=O)c2nnn(Cc3nc(-c4ccc(Cl)cc4)oc3C)c2C)cc1 | -1.8 | -0.1
COCc1c(Br)c(C)nc(OCC(=O)N/N=C\c2ccc(I)o2)c1C#N | -13.0 | -17.4
CN1CCN(n2c3c(c(SCC(=O)Nc4ccc([N+](=O)[O-])cc4)nc2=O)CCC3)CC1 | -2.8 | -5.3
C=CCOCC(O)CN(Cc1c(C(C)C)nn(-c2ccccc2)c1Oc1cccc(F)c1)C1CC1 (configuration not stated) | 7.2 | 8.4
CCCc1ccc(C(=O)N2Cc3nnc(C(=O)NC)n3C(c3ccccc3)C2)cc1 (configuration not stated) | 7.3 | 3.7
Cc1ccc(C2CC(c3ccccc3)=NN2C(=O)CN2CCOCC2)cc1 (configuration not stated) | -5.4 | 1.2
CCN(Cc1csc(COc2cccc(C)c2C)n1)C(=O)c1ccccc1F | 24.7 | 26.0
C1CC2(CCN1)CCC(NCCN1CCOCC1)CC2 | 22.6 | 17.7
CN(Cc1n[nH]c2c1CCCC2)C(=O)c1ccc(OC2CCN(C(=O)C3CC3)CC2)cc1 | 3.2 | -0.1
CN1CCN(C(=O)/C=C/c2ccccc2C#N)C(c2ccccc2)C1 (configuration not stated) | 6.7 | -0.2
Cc1c(C(=O)NCc2cccs2)sc(=O)n1Cc1ccccc1C(F)(F)F | 12.1 | 2.8
Cc1ccc(S(=O)(=O)N(C)C)cc1NC(=O)Cc1cccs1 | -2.6 | -2.1
Cc1cc(O)c2c(c1)O/C(=C\c1ccccc1Br)C2=O | 3.1 | 0.8
COCCN(Cc1c(-c2cccc(C)c2)noc1N1CCCC1)C(=O)c1ccco1 | 0.1 | -0.6
CN(c1ccc(CNC(=O)c2nccnc2N)cc1)S(C)(=O)=O | 9.7 | 7.6
C#CCN(C(=O)CCOC1CCOCC1)C1CCCCC1 | 7.0 | 4.1
O=C(CSc1nnc(CNC(=O)c2ccco2)o1)NCc1ccco1 | 8.7 | 1.8
O=C(CCc1ccccc1)N1CCCC(OCc2cccc(C(F)(F)F)c2)C1 (configuration not stated) | -5.7 | -0.5
COc1cccc(CC(=O)Nc2cnc3cnc(-c4ccc(C(C)C)cc4)cn23)c1 | -4.7 | -9.8
C=CCc1c(C)c(C#N)c2nc3ccccc3n2c1NCCN(C)C | 0.0 | 1.2
CC(C)c1ccc(N2C(=O)c3ccc(-c4nc5ccccc5c(=O)o4)cc3C2=O)cc1 | 1.4 | 9.9
CC(=O)c1c(C)cc(C)c(CN(C)CC(O)CN2CCOCC2)c1C (configuration not stated) | 0.5 | -0.1
COc1cc(-c2ccc(=O)n(CC(N)=O)n2)cc(OC)c1OC | 17.5 | 15.0
Cc1cn[nH]c1 | 0.2 | 0.2
CN(C)c1nc(N)nc(COc2ccc3cc(Br)ccc3c2)n1 | 3.9 | -1.6
O=C(NCCOc1cc(N2CCOCC2)ncn1)Nc1ccccc1 | -0.7 | -3.0
CCOC(=O)C1=C(C)N=c2s/c(=C\c3cccs3)c(=O)n2C1c1ccc2c(c1)OCO2 (configuration not stated) | -4.0 | -4.8
C=CCN(C1CCc2ccccc21)S(=O)(=O)/C=C/c1ccccc1 (configuration not stated) | 18.2 | 9.3
CNS(=O)(=O)c1ccc(CN(C)Cc2sccc2C)cc1 | -4.0 | -5.2
COc1ccc(CC(=O)N(C2CCC(C)CC2)C2CC2)c(OC)c1OC (configuration not stated) | 10.9 | 8.0
O=C(CCC(=O)N1CCc2ccccc2C1)NCCC1=CCCCC1 | -6.5 | -16.5
CC(=O)Nc1ccc2c(c1)NC(=O)CC2COCc1ccccc1 (configuration not stated) | 4.3 | 5.7
O=c1c2ccccc2ncn1Cc1cc(=O)n2ccsc2n1 | 16.3 | 25.5
CC(NC(=O)NC(C)(C)C)C1CCCN(C(=O)c2ccc(F)cc2)C1 (configuration not stated) | 4.0 | 1.4
Cn1c(=O)n(Cc2cccc3ccccc23)c(=O)c2c1nc1n2CCCN1C1CCCCC1 | -5.1 | -6.4
Nc1nnc(-c2cc3c(ccc4ccccc43)oc2=O)s1 | 5.7 | 3.2
CC(C)c1ccc(NC(=O)Nc2ccc(N3CCCC3)c(C(=O)NC(C)c3ccccc3)c2)cc1 (configuration not stated) | 7.8 | 9.0
CC1=NC2=C(C(=O)CCC2)C(c2cccc([N+](=O)[O-])c2)C1C(=O)OC1CCCCC1 (configuration not stated) | 5.1 | 3.8
CNC(=O)[C@@H]1C[C@@H](N)CN1Cc1cnc(C(C)(C)C)nc1 | -2.2 | -2.5
CC1(C)CC(Nc2ccc(C(=O)NCCCc3ccccn3)cn2)CCO1 (configuration not stated) | 17.0 | 9.3
CCn1c(C2CCN(C(=O)C(C)Cn3nc(C)nc3C)CC2)nn(C)c1=O (configuration not stated) | 5.3 | 3.5
CCOC(=O)C(=NNc1cc(Cl)ccc1Cl)N1CCN(c2ccccc2)CC1 | -4.3 | -8.7

Among those listed so far, these have a cyano group.
SMILES | NPYLR7 ag | NPYLR7 ag max-min
COCc1c(Br)c(C)nc(OCC(=O)N/N=C\c2ccc(I)o2)c1C#N | -13.0 | -17.4
CN1CCN(C(=O)/C=C/c2ccccc2C#N)C(c2ccccc2)C1 (configuration not stated) | 6.7 | -0.2
C=CCc1c(C)c(C#N)c2nc3ccccc3n2c1NCCN(C)C | 0.0 | 1.2

Next part:
SMILES | NPYLR7 ag | NPYLR7 ag max-min
Cc1nc2ccc(Cl)cn2c1CN(C)Cc1nc(C2CC2)no1 | 4.2 | 2.0
Cc1ccc(NC(=O)CSc2nnc(-c3cccs3)o2)c(F)c1 | 9.6 | 3.9
CCn1c(CC2CCN(Cc3ccc(OC)c(C)c3)CC2)nn(C)c1=O | 12.3 | 6.8
COc1ccc(-c2c(=O)n(O)c3ccccc3[n+]2[O-])c(OC)c1 | 18.9 | 2.0
Cc1cc(C)cc(NS(=O)(=O)c2cc(F)cc(F)c2)c1 | 3.4 | 10.4
CS(=O)(=O)N1CCN(c2ccc(Nc3ccccn3)nn2)CC1 | 19.3 | 9.2
CCC(=O)NNC(=O)C(C)N(Cc1ccccc1)Cc1ccco1 (configuration not stated) | 3.6 | -9.8
Cc1ccc(CN(C(=O)Cc2n[nH]c(=O)[nH]2)C2CC2)s1 | 1.2 | -0.3
CCC1CN(Cc2[nH]nc3cc(OC)ccc23)CCN1C(C)C (configuration not stated) | 22.0 | 8.9

Compound profiles, as listed above:
`CCC(=O)NNC(=O)C(C)N(Cc1ccccc1)Cc1ccco1` (configuration not stated) reads NPYLR7 ag: 3.6; NPYLR7 ag max-min: -9.8
`CS(=O)(=O)N1CCN(c2ccc(Nc3ccccn3)nn2)CC1` reads NPYLR7 ag: 19.3; NPYLR7 ag max-min: 9.2
`COc1ccc(-c2c(=O)n(O)c3ccccc3[n+]2[O-])c(OC)c1` reads NPYLR7 ag: 18.9; NPYLR7 ag max-min: 2.0
